# Vif A3G: inhibitors of Vif binding to APOBEC3G peptide, primary screen, biochemical, TR-FRET, GST-Vif 1-94, biotin-A3G peptide, dose response retest (AID 1117319). 260,000 tested, 0.57% active. Virion infectivity factor (Human immunodeficiency virus type 1 group M subtype B (isolate …. inhibition, %, or IC50 in µM where a hit was titrated. TR-FRET GST-Vif / biotin-A3G peptide binding; higher % means a stronger effect; test concentration not given here; strong numbers were not always called active;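 active means above the screen mean plus three standard deviations and confirmed in dose response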;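 further: Vif residues 1-94 fused to GST binding biotinylated APOBEC3G peptide 110-148; 0% = full assay without inhibitor and 100% = GST in place of GST-Vif; retest series ran down from 100 µM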
# HNF4A DNA FP: change in binding of human HNF4A to DNA, primary screen, biochemical, fluorescence polarization, FITC-DNA; Hepatocyte nuclear factor 4-alpha (Homo sapiens), P41235; 1 h; activity change, % at 10 µM; 360,000 tested, 0.3% active; AID 1224865, 2016; in the data active means activity change above about 30%, passing the limit was not always enough;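 further: controls were the assay level and a saturating level of protein; the project sought stronger binding though the title names inhibitors; some compounds called inactive have numbers as strong as hits; positive values seem to mean higher polarization but the record does not say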
# Target sequence (P41235 whole entry, looked up): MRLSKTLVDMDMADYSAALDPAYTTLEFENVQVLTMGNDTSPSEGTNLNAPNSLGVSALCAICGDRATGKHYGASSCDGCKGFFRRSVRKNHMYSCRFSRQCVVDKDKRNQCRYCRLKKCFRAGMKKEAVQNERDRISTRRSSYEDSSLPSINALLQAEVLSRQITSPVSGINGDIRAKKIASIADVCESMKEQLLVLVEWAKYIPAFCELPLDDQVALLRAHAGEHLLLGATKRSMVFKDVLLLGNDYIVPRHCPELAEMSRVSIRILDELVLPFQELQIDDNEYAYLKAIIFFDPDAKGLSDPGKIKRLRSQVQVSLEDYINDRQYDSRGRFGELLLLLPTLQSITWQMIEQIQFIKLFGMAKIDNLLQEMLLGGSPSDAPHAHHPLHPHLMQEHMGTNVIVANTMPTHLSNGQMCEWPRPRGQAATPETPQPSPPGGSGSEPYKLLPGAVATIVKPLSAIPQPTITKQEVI
# The depositor's hits bear a star.
SMILES,Vif A3G,HNF4A DNA FP
O=C(O)C(=Cc1ccccc1[N+](=O)[O-])c1ccc2c(c1)OCO2,6%,-4.2
CCC1=NN(C(=O)c2ccccc2[N+](=O)[O-])C(O)(c2ccccc2)C1 (stereo not given),3%,-2.6
C[C@@H]1CN([C@@H](C)CO)C(=O)CCCn2nncc2CO[C@@H]1CN(C)S(=O)(=O)c1ccc(F)cc1,-4%,-6.0
CCOc1ccccc1C=C1CCc2ccccc2C1=O,-3%,-1.1
CC(=Nc1ccccc1)C1=C(O)C(Cc2ccc(F)cc2)NC1=O (stereo not given),-4%,4.4
Oc1ccccc1C1=NC(c2ccccc2)NC(c2ccccc2)C1 (stereo not given),-1%,-0.1
CC1=C(C(=O)N2CCOCC2)CC(CC(=O)NCCCCc2ccccc2)C(=O)N1Cc1ccc(C(C)(C)C)cc1 (stereo not given),0%,-0.1
COc1cc(C(C)=O)ccc1OC(=O)N1CCOCC1,-3%,-3.7
C[C@H](O)[C@@H]1C(=O)N2CCc3ccc(-c4ccccc4)cc3[C@@H]2C[C@@H]1N(C)C(=O)c1ccco1,-3%,7.1
COc1cccc(CN(C)C[C@@H]2OCc3ccccc3-c3c(n(C)c4ccccc34)C(=O)N([C@@H](C)CO)C[C@H]2C)c1,-2%,-5.1
CC[C@@H](NCCCn1cnc2c(SC)ncnc21)c1ccccc1,-2%,4.1
Nn1c(COc2ccccc2F)nnc1SCC(=O)NCC1CCCO1 (stereo not given),0%,-1.3

# In another format: entries from further up.
# Second line of a record: Vif A3G, HNF4A DNA FP
- C[C@@H]1CN([C@@H](C)CO)C(=O)CCCn2nncc2CO[C@@H]1CN(C)S(=O)(=O)c1ccc(F)cc1
 : -4%, -6.0
- CCOc1ccccc1C=C1CCc2ccccc2C1=O
 : -3%, -1.1
- CC(=Nc1ccccc1)C1=C(O)C(Cc2ccc(F)cc2)NC1=O (stereo not given)
 : -4%, 4.4
- Oc1ccccc1C1=NC(c2ccccc2)NC(c2ccccc2)C1 (stereo not given)
 : -1%, -0.1
- CC1=C(C(=O)N2CCOCC2)CC(CC(=O)NCCCCc2ccccc2)C(=O)N1Cc1ccc(C(C)(C)C)cc1 (stereo not given)
 : 0%, -0.1
- COc1cc(C(C)=O)ccc1OC(=O)N1CCOCC1
 : -3%, -3.7
- C[C@H](O)[C@@H]1C(=O)N2CCc3ccc(-c4ccccc4)cc3[C@@H]2C[C@@H]1N(C)C(=O)c1ccco1
 : -3%, 7.1

# Going on with the list:
SMILES,Vif A3G,HNF4A DNA FP
O=C(Nc1ccc(S(=O)(=O)Nc2ncccn2)cc1)c1ccc(Br)cc1,-9%,1.4
CC(C)[C@H](NC(=O)c1ccccc1F)C(=O)Nc1cccc(S(=O)(=O)N2CCOCC2)c1,-10%,-1.7
Cc1ccc(S(=O)(=O)N2CCCCC2)cc1NC(=O)C1CCN(C(=O)OC(C)(C)C)CC1,-2%,-0.9
CC(C)(C)OC(=O)NCCc1onc(-c2cccc([N+](=O)[O-])c2)c1C(=O)O,-7%,0.5
COc1cccc(C(=O)NCC2CCCN(C(=O)Cc3cccc(C)c3)C2)c1OC (stereo not given),6%,-2.6
CC(=O)N1C[C@H]2CON(C)[C@H]2C[C@H]1c1ccc(-c2ccc(C#N)cc2)cc1,16%,1.2
COc1cccc(CCNC(=O)c2cc(COc3cccc(OC)c3)on2)c1,0%,2.8
CCc1cccc(CC)c1N1C(=O)C2=C(SCCCS2)C1=O,1%,3.8
C=CCn1c(SCC(=O)Nc2c(C)n(C)n(-c3ccccc3)c2=O)nnc1-c1ccncc1,4%,1.8
Cc1cc(C)cc(Nc2cc(C)nc3ncnn23)c1,0%,-4.2
CCOC(=O)C(N=Nc1nn[nH]n1)C(C)=O (stereo not given),-3%,-1.6
Cc1ccc(NC(=O)COc2ccccc2)cc1S(=O)(=O)N1CCCCC1,2%,0.6
CCN(CC(=O)Nc1ccc(C#N)cc1)CC(=O)Nc1ccc2c(c1)OCCO2,0%,0.9
CCC(Sc1nc2ccsc2c(=O)n1Cc1ccc(C(=O)O)cc1)C(=O)Nc1cc(Cl)ccc1C (stereo not given),-7%,-2.5
CCOC(=O)c1cnc2cc(-c3ccc(C)cc3)nn2c1C,2%,6.6
CC[C@H](C)[C@H]1CNC(=S)N1CC1CCN(CCC(C)C)CC1,3%,0.3
C[C@@H]1CCCCO[C@H](CN(C)C(=O)Nc2ccc(F)cc2)[C@@H](C)CN([C@H](C)CO)C(=O)c2cc(N(C)C)ccc2O1,7%,-0.9
O=C(O)c1ccccc1Cc1ccc(F)c2ccccc12,-4%,4.3
c1ccc2c(C3OCC4(CCCCC4)CO3)cccc2c1,-1%,0.7
CC(C)OC(=O)N(C)C[C@@H]1OCc2ccccc2-c2c(n(C)c3ccccc23)C(=O)N([C@@H](C)CO)C[C@H]1C,-9%,-1.5
CC1(C)CC(=O)C=C(c2ccc(-c3cnc4ccccc4c3)cc2)C1=O,-7%,0.0
COC(=O)c1ccc(CSc2ccccc2NC(=S)Nc2cccc(SC)c2)o1,-10%,-0.8
C[C@H]1CN(c2ccccc2)C(=O)[C@@H]1CC(=O)Nc1ccc(Br)cc1,2%,-4.3
Cc1ccc(C(=O)NCC(=O)Nc2ccccc2C)o1,1%,4.9
Nn1c(SCC(=O)N2CCCC2)nnc1-c1cccs1,-8%,4.0
COc1ccc([C@H]2N[C@]3(CCCN(Cc4ccco4)C3=O)[C@H]3C(=O)N(C)C(=O)[C@@H]23)cc1,4%,-2.8
C[C@H]1CN([C@@H](C)CO)C(=O)CCCn2nncc2CO[C@@H]1CN(C)S(=O)(=O)c1ccc(-n2cccn2)cc1,7%,1.2
C[C@@H]1CN([C@H](C)CO)C(=O)CCCn2nncc2CO[C@@H]1CN(C)C(=O)CCC(F)(F)F,2%,-2.6
CNC(=O)C[C@H]1C(=O)N(C2CCCCC2)C[C@@H]1CSC,-2%,-0.7
CC(C)c1cc(C(=O)OCC(=O)NC2CC2)c(O)c(C(C)C)c1,2%,-0.9
C[C@H]1CN([C@@H](C)CO)C(=O)CCCn2cc(nn2)CO[C@@H]1CN(C)C(=O)c1cc(-c2ccccc2)on1,-7%,0.5
CCCC1NC(=O)c2cc3ccccc3cc2-n2c1nc1cc(F)ccc1c2=O (stereo not given),4%,-3.5
CS(=O)(=O)N(CCc1ccccc1)CC(=O)N1CCCCCC1,-6%,6.0
COc1ccc(CN(C)CCCn2ccc(NC(=O)OCc3ccccc3)nc2=O)cc1OC,2%,-0.8
CCCNC(=O)N(C)C[C@@H]1Oc2cc(C#C[C@H](C)O)ccc2S(=O)(=O)N([C@H](C)CO)C[C@H]1C,2%,3.6
CC1=C(C(=O)N(C)C)CC(CC(=O)NC(c2ccccc2)c2ccccc2)C(=O)N1Cc1ccc(F)cc1 (stereo not given),1%,-5.5
O=C1OC(c2ccccc2)(c2ccccc2)c2ccsc21,0%,4.2
C[C@H](CO)N1C[C@H](C)[C@@H](CN(C)Cc2cccnc2)Oc2ncc(-c3cccc(C#N)c3)cc2C1=O,1%,3.2
Cc1ccc(-n2c(COc3ccccc3)nnc2SCC(=O)O)cc1,5%,-6.2
CC(=O)NCCc1ccc(C(=O)COC(=O)c2cccs2)cc1,-5%,1.1
CC1(C)CC(=O)C2=C(C1)OC1=C(C(=O)CC(C)(C)C1)C2c1ccccc1Cl,-67%,1.0
C[C@H](CO)N1C[C@H](C)[C@@H](CN(C)C(=O)c2cc(-c3ccccc3)on2)OCc2cnnn2CCCC1=O,3%,-2.1
CC1C(=O)N(Cc2cn(CCC3OCCO3)nn2)CCS(=O)(=O)N1Cc1ccc(-c2ccccc2)cc1 (stereo not given),11%,-0.8
COc1cccc(CSC(C(=O)O)c2ccccc2)c1 (stereo not given),-1%,11
CCCCn1c(N)c(N(Cc2ccccc2OC)C(=O)C(C)Oc2cccc(Cl)c2)c(=O)[nH]c1=O (stereo not given),5%,0.3
COc1ccc(S(=O)(=O)N2CCCCCC2)cc1NC(=O)Cc1cccc(C(F)(F)F)c1,-1%,2.7
Cc1cc(/C=N/NC(=O)c2ccoc2C)cc(C)c1O,-1%,-4.7
C[C@H](CO)N1C[C@H](C)[C@@H](CN(C)S(=O)(=O)c2cn(C)cn2)Oc2ncc(Br)cc2C1=O,-2%,-0.8
CCCC1NC(=O)c2cc3ccccc3cc2-n2c1nc1ccc(C)cc1c2=O (stereo not given),-2%,-4.3
COc1ccc(C(=O)OCc2cc(=O)oc3c(C)c(C)ccc23)cc1S(=O)(=O)N1CCOCC1,0%,2.4
C[C@H]1CN([C@@H](C)CO)C(=O)CCCn2nncc2CO[C@@H]1CN(C)S(=O)(=O)c1cn(C)cn1,6%,-4.0
CCCCCCN1C[C@H](n2cc(-c3ccc(F)cc3)nn2)[C@@H](O)C[C@@H]1c1ccc(OC)cc1,1%,0.4
CC1=C(C(=O)N2CCOCC2)CC(CC(=O)NCC2CCCCC2)C(=O)N1CCC1=CCCCC1 (stereo not given),5%,3.0
Fc1ccc(-c2nc3c4ccccc4ccn3c2Cc2ccccc2)cc1,3%,-0.7
Cc1ccccc1NC(=O)Cc1nc(COC(=O)CNC(=O)c2ccc(Cl)cc2Cl)cs1,6%,1.8
C[C@@H]1CCCCO[C@@H](CN(C)S(=O)(=O)c2ccc(F)cc2)[C@@H](C)CN([C@H](C)CO)C(=O)c2cc(N(C)C)ccc2O1,-2%,0.0
c1ccc(N=NC2=NN(c3ccccc3)CS2)cc1,-3%,9.2
Cc1ccc(NC(=O)CSCC(=O)N(C)Cc2c(F)cccc2Cl)cc1,3%,0.0
CC(C)c1ccc(Nc2nc(N3CCOCC3)nc(N3CCOCC3)n2)cc1,-1%,3.7
CN1CCN(c2ccncc2S(=O)(=O)N2CCCC2)CC1,-5%,-4.1
# (list continues)
SMILES,Vif A3G,HNF4A DNA FP
NC1(CO)COC(c2ccccc2)OC1 (stereo not given),-1%,2.8
O=C(NCc1ccccc1F)C1CC(=O)N(Cc2ccco2)C1 (stereo not given),5%,-0.1
COc1ncnc2c1ncn2CCCNCc1ccco1,-4%,-0.4
O=C(NNC(=O)c1ccco1)c1ccco1,1%,0.5
CCCCCCNC(=O)O[C@H]1Cn2c(=O)ccc(=O)n2[C@@H]2CN(S(=O)(=O)c3ccc(C)cc3)C[C@]12O,-1%,1.1
O=C1NC(=O)C([N+](=O)[O-])=C(O)C1=O,4%,1.1
CSc1ccccc1C(=O)OCC(=O)NC1CC1,0%,-1.6
COc1cc(/C=N/NC(=O)c2nnn(-c3nonc3N)c2C)ccc1OCc1ccc(Cl)cc1,0%,18
COc1cccc(N2CCN(C(=O)c3cccc(S(=O)(=O)N4CCCC4)c3)CC2)c1,0%,-0.6
Cc1csc(=O)n1CCC(=O)OCC(=O)NCc1ccccc1,-1%,1.0
CC1=C(C(=O)N(C)C)CC(CC(=O)NC2CC2)C(=O)N1Cc1ccc(C(C)(C)C)cc1 (stereo not given),0%,-5.3
CC(NC(=O)C1CCCN1C(=O)c1cccs1)c1ccc(Cl)cc1Cl (stereo not given),-4%,1.2
NC(=S)NN=Cc1ccc(OC(=O)COc2cc(Cl)c(Cl)cc2Cl)cn1,-2%,-3.7
Cc1ccc(N(CC(=O)NC(C)C)C(=O)CCC(=O)Nc2ccccn2)c(C)c1,-2%,4.2
COc1ccc(C(C)=NNS(=O)(=O)c2ccc(C)cc2)cc1OC,10%,-10
O=[N+]([O-])c1ccc(O)c(C=NN2CCCCC2)c1,-1%,0.8
O=C(COn1nnc2ccc(S(=O)(=O)N3CCOCC3)cc21)NCc1cccc(Cl)c1,5%,-1.1
O=C(Nc1ccccc1Cl)OCC#CCOC(=O)Nc1ccccc1Cl,-7%,3.1
Cc1ccc([C@H]2N[C@]3(CCCN(Cc4ccco4)C3=O)[C@H]3C(=O)N(Cc4ccccc4)C(=O)[C@@H]23)cc1,3%,-0.1
CCCCN1C(=O)C(CC(=O)NCCCN(C)C)CC(C(=O)N(CC)CC)=C1C (stereo not given),-1%,-0.6
COc1ccc(CCN2CC(C(=O)NCCCc3ccncc3)CCC2=O)cc1 (stereo not given),7%,1.3
Cc1ccc(S(=O)(=O)N2C[C@H]3N(C(=O)OC(C)C)N(C(=O)OC(C)C)C[C@H](OC(=O)NC4CCCC4)[C@@]3(O)C2)cc1,7%,-0.9
COc1ccc([C@H]2N[C@]3(CCCN(Cc4cccn4C)C3=O)[C@H]3C(=O)N(Cc4ccccc4)C(=O)[C@@H]23)cc1,-2%,-0.9
COc1cccc(OC)c1C(=O)OCC(=O)NCC1CCCCC1,-7%,1.4
COc1ccccc1-c1noc2c1C(=O)NCC2,2%,1.5
Cc1ccc(Nc2nc(C)cc(C)c2C#N)c(C)c1,-5%,0.3
Cc1ccccc1S(=O)(=O)N(C)C[C@@H]1OCc2cnnn2CCCC(=O)N([C@H](C)CO)C[C@H]1C,-6%,1.5
Cc1ccc(S(=O)(=O)N2CC3(O)CN(C(=O)OC(C)C)N(C(=O)OC(C)C)CC3(OC(=O)NCc3ccccc3)C2)cc1 (stereo not given),0%,-3.7
COc1cccc(-c2ccccc2C2=CC(=O)CC(C)(C)C2=O)c1,-2%,1.8
Cc1cc2nc(CN(C)C(=O)C3CCC(=O)N(C4CCCC4)C3)[nH]c2cc1C (stereo not given),4%,-28
O=C(Nc1ccn(CCCN2CCN(c3ncccn3)CC2)c(=O)n1)OCc1ccccc1,7%,-2.3
COCCCN(Cc1cc(OC)c(OC)c(OC)c1)C(=S)Nc1cccc(Cl)c1,2%,0.6
COc1ccc(C2CCc3cc(OC)c(OC)cc3C2NC=O)cc1OC (stereo not given),5%,0.6
COC(=O)c1ccccc1N=NNc1ccc([N+](=O)[O-])cc1,0%,-3.2

# Some of the compounds tested. The share of hits here may be higher or lower than overall.
